CtBP-E1A inh = qHTS Assay for Inhibitors of the CtBP/E1A Interaction. CtBP / adenovirus E1A interaction (AlphaScreen). AlphaScreen GST-E1A/His-CtBP binding, 1536-well; hits give low values; control for the full effect not named in the record. activity change, % (concentration not given with the values). 340,000 tested, 0.49% active; in the data active means activity change below about -65%; inconclusive means about -30% to -65%; inactive means above about -30%; also: % is scaled to controls: 0 for no effect and ±100 for the full control effect
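In 5 uL wells, 23 nL compound meets equimolar GST-E1A and His-CtBP (5X stock 125 nM each) for 2 h, 37 °C. Beads (5X, 50 ug/mL) then 1 h, 37 °C, dark.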
PINK1 expr mod = A Quantitative High throughput Screen to Identify Chemical Modulators of PINK1 Expression | PINK1 immunofluorescence, high-content cytometry, 24 h | Potency, µM (doses to about 76.6 µM), for inactives: at the highest dose activation (PINK1 increase), actives largely listed as activators | 410,000 tested, 0.2% active; active = well fitted activation curve with a large enough effect; inconclusive = small, poorly fitted or top-dose-only effect; inactive = flat fitted curve, though single readings scatter; cell line not stated here;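 also: potency is read from the fitted curve at half-maximal effect; % of control where 0% means no effect; nearly all actives have a fitted effect of over 65% in size; a mitochondrial uncoupler was the plate control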
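Cells are seeded, rested 12 hours, then given compound at five concentrations or DMSO for 24 hours. After fixation, blocking and antibody staining, PINK1 amount and mitochondrial localization are scored; CCCP serves as control.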
D2 potentiator = Beta-Arrestin HTS for Positive Allosteric Modulators of the Human D2 Dopamine Receptor: Potentiators | DiscoveRx D2 beta-arrestin cells, luminescence, 90 min; 100% = 57 uM dopamine signal | potentiation, % (concentration not given with the values) | 360,000 tested, 0.23% active | AID 624464, 2012; active = potentiation of 50% or more; inconclusive = 30% to 50%; inactive = 30% or less;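 also: compound concentration not given in the record; tested on top of an EC20 dose of dopamine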
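PathHunter D2 cells, attached overnight at 37 deg C, received compound in DMSO plus dopamine at EC20 (50 nM final) for 90 min at 37 deg C. Beta-arrestin recruitment was read as luminescence after 1 h with detection reagent at ambient temperature.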
D2 agonist = Beta-Arrestin HTS for Positive Allosteric Modulators of the Human D2 Dopamine Receptor: Agonists | D(2) dopamine receptor (Homo sapiens), P14416 | DiscoveRx PathHunter D2 beta-arrestin, luminescence, 90 min; 100% = 57 uM dopamine signal | activation, % (test concentration not listed) | 360,000 tested, 0.084% active | AID 624465, 2012; in the data active = activation above about 40%; inconclusive = about 15% to 40%; inactive = below about 15%; also: compound concentration not given in the record; the text of the record calls up to 30% inactive
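DiscoveRx PathHunter D2 beta-arrestin cells (2,100/well) attached overnight, then compound-stimulated 90 min at 37 C in HBSS/10 mM HEPES/0.1% Tween-20 buffer; beta-galactosidase complementation read by luminescence after 1 h at ambient temperature. Dopamine 57 uM final (EC100) as control.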
TRPML1 ag = qHTS for Agonists of the Human Mucolipin Transient Receptor Potential 1 (TRPML1); 410,000 tested, 0.12% active; Mucolipin-1 (Homo sapiens), Q9GZU1; activation, % (concentration not given with the values); TRPML1-expressing cells, Ca2+ dye fluorescence, FDSS; host cell line not named in the record; reference of the full effect not given here; in the data active = activation above about 50%; inconclusive = about 30% to 50%; inactive = below about 30%; also: 0% is about no effect; the text of the record puts the active cut at 80%
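TRPML1-DL cells, Tet-induced overnight (~16 h, 37 degrees C), loaded 45-90 min at room temperature with Ca8 no-wash calcium dye plus quencher. FDSS fluorescence: 10 s baseline, compound pin-transfer, 110 s agonist read, then EC80 54-4 (4uM final) and 110 s antagonist read.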
Six1-Eya2 blk = qHTS Assay for Inhibitors of the Six1/Eya2 Interaction. 360,000 tested, 0.56% active. AlphaScreen GST-Six1/His-Eya2 binding, biochemical; hits give low values; control for the full effect not named in the record. activity change, % (test concentration not listed). AID 651725, 2012. Homeobox protein SIX1 (Homo sapiens) + Protein phosphatase EYA2 (Homo sapiens), …; in the data active = activity change below about -65%; inconclusive = about -30% to -65%; inactive = above about -30%; also: % is scaled to controls: 0 for no effect and ±100 for the full control effect; compound concentration not given in the record
Target sequence (O00167 whole entry, looked up): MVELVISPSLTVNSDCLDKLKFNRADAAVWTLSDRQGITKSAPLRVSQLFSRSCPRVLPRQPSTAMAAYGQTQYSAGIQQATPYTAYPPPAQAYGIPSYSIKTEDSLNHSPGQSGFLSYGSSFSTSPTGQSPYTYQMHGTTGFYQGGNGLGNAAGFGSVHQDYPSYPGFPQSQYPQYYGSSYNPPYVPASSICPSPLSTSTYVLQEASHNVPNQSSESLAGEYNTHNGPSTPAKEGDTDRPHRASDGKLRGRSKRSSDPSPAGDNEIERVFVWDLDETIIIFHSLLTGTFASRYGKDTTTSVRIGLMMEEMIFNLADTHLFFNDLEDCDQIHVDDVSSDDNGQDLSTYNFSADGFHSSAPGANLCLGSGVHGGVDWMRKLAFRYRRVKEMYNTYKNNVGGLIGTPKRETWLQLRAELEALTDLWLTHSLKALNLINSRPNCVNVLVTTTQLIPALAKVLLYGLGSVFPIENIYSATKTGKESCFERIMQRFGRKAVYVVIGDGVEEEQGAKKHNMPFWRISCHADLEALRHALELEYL
Target sequence (Q15475 whole entry, looked up): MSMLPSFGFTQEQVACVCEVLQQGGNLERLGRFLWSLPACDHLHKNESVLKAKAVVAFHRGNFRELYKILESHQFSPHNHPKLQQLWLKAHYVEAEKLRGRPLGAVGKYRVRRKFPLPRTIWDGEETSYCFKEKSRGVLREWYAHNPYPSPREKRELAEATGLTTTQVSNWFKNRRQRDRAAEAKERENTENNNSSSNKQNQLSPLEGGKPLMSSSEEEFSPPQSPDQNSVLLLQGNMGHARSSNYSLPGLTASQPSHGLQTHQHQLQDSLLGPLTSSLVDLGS
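AlphaScreen with GST-Six1 and His-Eya2 (5X mix: 250 nM and 500 nM), glutathione donor and nickel acceptor beads; buffer 50 mM Tris pH 8.0, 300 mM NaCl, 1 mM TCEP; 1 h at 37 C in the dark.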
Numbers without * were called inactive; ? = inconclusive; / = not tested or not shown; [ ] = another dose, or the depositor's remark.

SMILES	CtBP-E1A inh	PINK1 expr mod	D2 potentiator	D2 agonist	TRPML1 ag	Six1-Eya2 blk
Cc1ccc(OC(=O)c2sc3ncn(C)c(=O)c3c2C)cc1	2	1.7%	-4	1.9	-0.3	19
COc1ccc(C(=O)NCc2nnc(SCC(=O)N3CCCc4ccccc43)o2)cc1OC	-4	0.5%	0	-1.9	1.7	3
O=C(CCNC(=O)c1ccc(Br)cc1)NCCCSc1ccccc1	2	0.4%	-16	-3.2	-0.2	5
O=C(CSc1nc2ccccc2c2c1CCCC2)N1CCOCC1	-1	-1.7%	-5	-1.3	0.1	-4
Cc1ccccc1NC(=O)Cc1nc(COC(=O)c2cccc(C)c2O)cs1	4	7.1%	-5	-0.4	3.3	1
O=C(/C=C/c1ccc2c(c1)OCO2)NCc1ccncc1	-24	0.3%	-4	-1.4	0.0	-30
O=c1c(-c2c(O)cc(O)c3c2O[C@H](c2ccc(O)cc2)CC3)c(-c2ccc(O)cc2)oc2cc(O)cc(O)c12	-1	6.8%	?	?	-0.1	-10
Cc1c(S(=O)(=O)N2CCCCC2)c(=O)n(C)c(=O)n1C	6	0.7%	-2	-1.5	0.0	5
COc1ccc(OCC(=O)NNc2c3ccccc3nc3ccccc23)cc1	?	9.9%	-20	1.1	0.5	?
CCCOc1ccc(N2C(=O)CC(N(CCc3ccc(S(N)(=O)=O)cc3)C(C)=O)C2=O)cc1 (stereo not given)	0	-1.4%	-6	-2.8	0.0	5
COc1ccc(-c2ccc(C(=O)NCc3ccc(N4CCN(C)CC4)cc3)c3occc23)c(C)c1	?	-1.1%	-20	-6.4	-0.4	?
CCCN(CC(=O)Nc1ccccc1C)C(=O)CCl	-19	-1.5%	-8	-3.4	-1.0	14
CN1CCc2c(sc3c2c(=O)n(-c2ccccc2)c2nnc(SCc4ccc(Cl)cc4)n32)C1	-1	1.1%	-8	1.7	-0.3	-7
CCN1CCN(C(=O)C(=O)c2cn(CC(=O)N(CC)CC)c3ccccc23)CC1	-1	0.9%	-6	-5.9	-0.4	13
O=C(NCC(=O)N1CCN(S(=O)(=O)/C=C/c2ccccc2)CC1)c1ccc(Cl)cc1	0	?	-3	-4.4	0.8	5
CCC(C)[C@H](NC(=O)NCc1ccco1)C(=O)OC (stereo not given in full)	0	-0.4%	-17	1.6	0.2	1
CC(C)CCn1c(=O)c2ccccc2n2c(CCC(=O)NCC3CCCO3)nnc12 (stereo not given)	2	0.9%	2	9.6	0.6	1
C[C@H](CO)N1C[C@H](C)[C@@H](CN(C)CC2CCCCC2)Oc2ccc(NC(=O)CCN3CCOCC3)cc2C1=O	4	-0.3%	-4	-2.7	-0.4	0
CSCCC(NS(=O)(=O)c1cccc(C(F)(F)F)c1)C(=O)Nc1ccccc1N1CCCC1 (stereo not given)	-4	?	-2	-1.8	-0.1	-17
O=C(Nc1ccc([N+](=O)[O-])cc1)Nc1cnccn1	-1	9.3%	-6	4.8	0.6	-10
N#Cc1cc([N+](=O)[O-])ccc1NC(=O)CSc1n[nH]c(=O)n1C1CC1	/	-0.5%	15	2.2	-0.6	0
CC(CC(=O)Nc1ccc(F)c([N+](=O)[O-])c1)c1ccccc1 (stereo not given)	2	-2.8%	-22	-2.9	0.5	7
COc1ccccc1NC(=S)NCc1ccc2c(c1)cc(C)n2C	?	-0.6%	-4	1.6	2.0	-27
CCc1ccc2nc(N(CCCN(C)C)C(=O)c3ccc(S(=O)(=O)N4CCCC4)cc3)sc2c1	?	1.5%	-14	-1.0	1.4	-15
O=C(Oc1cccc(Cl)c1)N1CCOCC1	-1	-0.5%	-1	-1.8	0.5	-15
COc1cc(/C=C2/C(=O)c3cccc([N+](=O)[O-])c3C2=O)c(Br)cc1O	-6	-1.3%	-35	-0.8	2.1	-5
COc1ccc(CN(C)S(=O)(=O)c2nnc(NC(=O)c3cccc(C)c3)s2)cc1OC	/	-0.4%	-3	4.7	0.7	-15
Cc1ccsc1C(=O)OCC(=O)N1CC(=O)Nc2ccccc21	0	-1.9%	-27	-1.7	2.4	20
CCOC=C1SC(=S)N(c2ccccc2OC)C1=O	1	1.5%	-12	-5.4	-0.1	-1
O=C(c1ccccc1)C(O)C(c1ccccc1)N1CCOCC1 (stereo not given)	3	0.0%	-3	2.4	0.5	4
CC(Sc1nnc(C2CC2)n1Cc1ccccc1)C(=O)N1CCNC1=O (stereo not given)	/	-1.1%	-2	-5.3	-0.5	3
CCc1cc(=O)oc2cc(C)c(CN3CCCC3)c(O)c12	-7	7.2%[38.3 µM]	-7	-2.2	-0.1	?
COCCNC(=O)C1CC2Cn3c(nc4ccccc43)C2N1C (stereo not given)	8	-0.4%	0	1.4	-0.4	4
O=C(NCCC1=CCCCC1)c1ccc(Cl)c(S(=O)(=O)N2CCOCC2)c1	-9	-1.9%	4	1.8	0.2	1
Cc1ccc(NC(=O)CCNC(=O)c2ccc(Br)cc2)cc1S(=O)(=O)N1CCOCC1	-1	3.5%	15	-0.8	0.6	-6
N#C/C(=C/c1cn(CC(=O)O)c2ccccc12)C(=O)Nc1ccccc1	9	1.2%	-5	-9.3	1.1	3
Cc1cc2c3c(c1)C1(C(=O)N3C(C)(C)CC2C)C(C#N)=C(N)Oc2cc(O)ccc21 (stereo not given)	-2	3.2%[38.3 µM]	7	-1.3	0.7	-3
Cc1cc(C)cc(NC(=O)C2CCN(c3nccs3)CC2)c1	-2	-1.0%	-44	-5.2	1.1	-4
CC1CC(C)CN(C(=O)CCS(=O)(=O)c2ccc3c(c2)NC(=O)CS3)C1 (stereo not given)	10	0.3%	7	-2.4	-0.8	6
O=C(O)c1ccccc1SCc1nc2ccccn2c1Br	/	1.7%	-10	-5.5	0.5	7
COc1ccc(C(=O)NCCCN=C2NS(=O)(=O)c3ccccc32)cc1	-17	-1.3%	-10	-5.7	-0.3	-22
COc1ccc(C=NN=C2c3ccccc3-c3ccccc32)cc1OC	-2	-1.7%	-18	-3.0	1.9	?
CCn1c(CNC(=O)c2ccco2)nnc1SCC(=O)c1ccc(F)cc1	-23	2.6%	-3	0.9	-0.1	-9
O=C(c1cn(Cc2ccccc2)nc1-c1ccc(Cl)cc1)N1CCN(c2ccccn2)CC1	-5	1.4%	-8	-0.2	0.8	-9
CCOc1ccccc1NC(=O)C12CC3CC(C1)CC(c1ccc(C)cc1)(C3)C2	4	2.9%	-9	-2.3	0.7	4
O=C(NCCC(=O)N1CCN(C(=O)c2ccco2)CC1)c1ccc(Br)cc1	10	-0.6%	-19	-5.7	-0.7	-1
COc1cc(CNc2ccc3[nH]c(=O)[nH]c3c2)ccc1OCc1ccccc1	-13	6.8%	1	5.9	0.1	-17
Nc1nc(NCCCN2CCOCC2)nc(Nc2cccc(F)c2)c1[N+](=O)[O-]	0	0.3%	-15	-3.7	0.4	14
O=C(NC1CC2CCCC(C1)N2Cc1cccs1)N1CCOCC1 (stereo not given)	3	-3.8%	-39	-2.5	0.3	8
COc1ccc(S(=O)(=O)N2CCSC2c2ccc(OC)c(OC)c2)cc1 (stereo not given)	-2	0.5%[38.3 µM]	2	-1.9	2.9	0
CCOc1ccc(NC(N)=O)cc1OCC	-4	-0.1%	-3	-6.8	-0.3	-6
CNc1nc2c(-c3ccc(Cl)cc3)nnn2c2ccccc12	12	-1.4%	2	3.8	0.3	5
CCN(CC)C(=O)c1oc2ccc(S(=O)(=O)N3CC(C)CC(C)C3)cc2c1C (stereo not given)	1	0.9%	-7	1.9	0.6	-6
Cc1nc(N)ncc1-c1ccc2c(c1)OCO2	8	-1.3%	-4	-2.7	-1.8	7
COc1ccc(NC(=O)CN(C)C(=O)c2ccccc2OCC(=O)Nc2cccc(C(F)(F)F)c2)cc1	6	9.0%	-2	-3.4	0.0	-2
CCN(CC(=O)Nc1ccc(OC)cc1)C(=O)c1ccc(OCc2c(C)noc2C)cc1	4	9.7%	1	-3.2	-0.4	-7
COc1cccc(NC(=S)N2CCc3cc(OC)c(OC)cc3C2)c1	3	-0.3%	1	-0.7	3.0	-12
Cc1[nH]c2ccccc2c1C1(O)C(=O)N(Cc2ccc3c(c2)OCO3)c2ccccc21 (stereo not given)	-15	2.6%	-14	-0.2	-0.3	-13
Cc1nn(-c2ccccc2)c(N2CCCC2)c1/C=N/NC(=O)c1cc(-c2cccs2)nc2ccccc12	-7	4.5%	-7	2.3	0.6	-12
CCOc1nc(NCCO)nc(Nc2ccc([N+](=O)[O-])cc2)n1	-23	2.9%	-13	0.0	0.6	-29

Arranged by length of the SMILES (rising): some entries from above.
SMILES	CtBP-E1A inh	PINK1 expr mod	D2 potentiator	D2 agonist	TRPML1 ag	Six1-Eya2 blk
CNc1nc2c(-c3ccc(Cl)cc3)nnn2c2ccccc12	12	-1.4%	2	3.8	0.3	5
COc1cccc(NC(=S)N2CCc3cc(OC)c(OC)cc3C2)c1	3	-0.3%	1	-0.7	3.0	-12
COc1cc(CNc2ccc3[nH]c(=O)[nH]c3c2)ccc1OCc1ccccc1	-13	6.8%	1	5.9	0.1	-17
Nc1nc(NCCCN2CCOCC2)nc(Nc2cccc(F)c2)c1[N+](=O)[O-]	0	0.3%	-15	-3.7	0.4	14
CCN(CC(=O)Nc1ccc(OC)cc1)C(=O)c1ccc(OCc2c(C)noc2C)cc1	4	9.7%	1	-3.2	-0.4	-7
COc1ccc(NC(=O)CN(C)C(=O)c2ccccc2OCC(=O)Nc2cccc(C(F)(F)F)c2)cc1	6	9.0%	-2	-3.4	0.0	-2
Cc1nn(-c2ccccc2)c(N2CCCC2)c1/C=N/NC(=O)c1cc(-c2cccs2)nc2ccccc12	-7	4.5%	-7	2.3	0.6	-12

Other structures follow.
SMILES	CtBP-E1A inh	PINK1 expr mod	D2 potentiator	D2 agonist	TRPML1 ag	Six1-Eya2 blk
Cc1cc(C(=O)N2CCCC(C(=O)c3ccc(Cl)cc3C)C2)no1 (stereo not given)	-11	-1.0%	-4	-4.4	1.1	14
CCn1c(SCC(=O)Nc2cccc(NC(C)=O)c2)nnc1-c1ccco1	13	-1.0%	-7	-0.7	0.0	-10
CCOC(=O)CNC(=O)c1sc(NC(=O)c2ccccc2F)nc1C	11	/	-13	-3.1	-0.1	-1
COc1ccccc1NC(=O)NNC(=O)C(C)Oc1ccc2ccccc2c1 (stereo not given)	-2	0.3%	-1	1.3	-0.1	1
CC1(c2nnnn2Cc2ccccc2)CCC(=O)N1C1CC1 (stereo not given)	8	0.6%	/	/	-0.4	3
CCN(c1ccccc1)S(=O)(=O)c1ccc(OC)c(NC(=O)c2cc(F)c(F)c(F)c2F)c1	4	16%	0	-4.1	1.3	6
Cc1ccc(OCCn2cc(C#N)c3ccccc32)cc1	22	-1.6%	-12	1.9	2.7	32
O=C(c1ccc(F)cc1)N(Cc1cccs1)C1CCS(=O)(=O)C1 (stereo not given)	/	0.8%	-6	-0.3	-1.0	3
